HNF4A DNA FP: change in binding of human HNF4A to DNA, primary screen, biochemical, fluorescence polarization, FITC-DNA. 360,000 tested, 0.3% active. Hepatocyte nuclear factor 4-alpha (Homo sapiens), P41235. activity change, % at 10 µM. 1 h; in the data active = activity change above about 30%, passing the limit was not always enough;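 also: controls were the assay level and a saturating level of protein; the project sought stronger binding though the title names inhibitors; some compounds called inactive have numbers as strong as hits; positive values seem to mean higher polarization but the record does not say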
UCH37 DUB inh: inhibitors of human UCH37 deubiquitinase, primary screen, biochemical, Ub-AMC cleavage, fluorescence; Ubiquitin carboxyl-terminal hydrolase isozyme L5 (Homo sapiens), Q9Y5K5; inhibition, % (concentration not given with the values); 330,000 tested, 0.33% active; purified proteasome/UCH37;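 active = mean of two replicates above 20%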;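 also: 0% = compound-free wells with enzyme and 100% = wells lacking proteasome; stock transfer was 100 nL into about 20 µL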
Target sequence (Q9Y5K5 whole entry, looked up): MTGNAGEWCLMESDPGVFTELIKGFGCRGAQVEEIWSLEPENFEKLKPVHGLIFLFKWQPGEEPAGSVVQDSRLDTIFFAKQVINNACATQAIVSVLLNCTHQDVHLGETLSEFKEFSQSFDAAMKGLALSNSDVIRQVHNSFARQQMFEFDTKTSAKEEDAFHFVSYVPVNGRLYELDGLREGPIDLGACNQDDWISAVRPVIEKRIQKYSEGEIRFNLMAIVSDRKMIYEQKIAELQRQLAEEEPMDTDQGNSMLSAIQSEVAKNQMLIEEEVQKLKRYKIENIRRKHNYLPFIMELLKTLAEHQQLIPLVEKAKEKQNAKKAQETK
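assay system = human UCH37 enzyme supplied as purified proteasome complex | amount = proteasome at 0.15 nM in the dispensed enzyme solution | schedule = 30 min compound-proteasome preincubation then 25 min substrate reaction, room temperature | measured by = fluorescence, ex 355 nm, em 460 nm | benchmarks = no-proteasome wells (full inhibition) and compound-free wells (no inhibition)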
rRNA inh HTS: reduced GFP signal of wild-type E. coli, primary screen, bacterial rRNA inhibitor project, GFP/RFP fluorescence, OD600, single point | E. coli WT GFP vs humanized-ribosome RFP mutants, 24 h; stronger effect = lower value; DMSO median 0, no signal -100 | GFP signal change (wild-type ribosome), % (no concentration beside the values) | 350,000 tested, 1.6% active;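 active = significant combined selectivity score with lowered wild-type GFP, culture density cut under 30%, mutant RFP and density less affected; inactive = any of these conditions unmet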; also: one replicate is shown; some compounds called inactive have numbers as strong as hits
B2AR ag: beta2AR agonists driving receptor internalization, primary screen, cell-based, FAP fluorogen, flow cytometry | 340,000 tested, 0.43% active | Am2.2-beta2AR cells; reference of the scale not given here | response, % (concentration not given with the values) | Beta-2 adrenergic receptor (Homo sapiens), P07550;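 active = response above a set limit, near 3 SD of response in nonfluorescent compounds, cut at about 42% in these data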;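 also: stock transfer was 100 nL into about 11 µL; a reference agonist was the positive control; negative values mostly stem from fluorescent compounds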
Target sequence (P07550 whole entry, looked up): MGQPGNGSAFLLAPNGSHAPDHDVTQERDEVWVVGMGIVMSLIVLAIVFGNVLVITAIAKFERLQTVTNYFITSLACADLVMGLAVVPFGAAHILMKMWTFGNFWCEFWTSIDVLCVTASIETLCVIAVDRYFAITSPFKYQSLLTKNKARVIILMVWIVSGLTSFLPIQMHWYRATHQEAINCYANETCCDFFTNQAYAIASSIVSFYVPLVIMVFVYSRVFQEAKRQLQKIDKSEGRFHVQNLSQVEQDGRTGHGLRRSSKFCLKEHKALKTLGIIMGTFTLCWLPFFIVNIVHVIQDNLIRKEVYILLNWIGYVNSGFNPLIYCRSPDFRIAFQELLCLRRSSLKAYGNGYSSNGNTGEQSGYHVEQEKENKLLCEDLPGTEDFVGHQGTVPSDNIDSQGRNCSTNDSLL
FGF22 binding: binders of human FGF22 protein, primary screen, FGF22 synaptogenesis inhibitor project, biophysical, thermal shift, single point. Fibroblast growth factor 22 (Homo sapiens), Q9HCT0. recombinant FGF22 thermal shift, SYPRO orange fluorescence; percent of sucrose octasulfate shift, DMSO zero. calls only at 9.99 µM. 340,000 tested, 1.5% active;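 active = melting point raised past a set limit in the mean and every replicate; inconclusive = no clear call; three in four hits are not shown here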
Target sequence (Q9HCT0 whole entry, looked up): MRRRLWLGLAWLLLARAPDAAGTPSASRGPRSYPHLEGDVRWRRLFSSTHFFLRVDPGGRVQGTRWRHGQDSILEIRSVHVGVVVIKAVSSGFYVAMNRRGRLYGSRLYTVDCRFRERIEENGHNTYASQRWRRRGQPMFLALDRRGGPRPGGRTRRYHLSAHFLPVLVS
ALR H2O2 inh: inhibitors of human ALR sulfhydryl oxidase, primary screen, biochemical, H2O2 detection, HRP-luminol luminescence, single point. 290,000 tested, 3.8% active. inhibition, % (no concentration beside the values). FAD-linked sulfhydryl oxidase ALR (Homo sapiens), P55789. purified ALR, DTT oxidation;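 active = mean and each replicate at 75% or more; inconclusive = only one of the two met; inactive = neither met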;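 also: stock transfer was 7.5 nL into about 7.5 µL; 0% = neutral wells and 100% = wells with inactivated enzyme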
Ecoli growth: E. coli growth inhibition, primary screen, OD600; 330,000 tested, 0.21% active; Escherichia coli growth, 23 h; stronger effect = lower value; OD600 absorbance (test concentration not listed);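 active = OD600 absorbance below the run mean of sample wells minus 3.6 SD, in any replicate, cut at about 0.56 in these data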;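 also: stock transfer was 300 nL into about 60 µL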
rRNA inh HTS OD600: recorded beside rRNA inh HTS, whose call it bears; OD600 change, %; measured here: OD600 growth;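 optical density of the mix in the first replicate; 0 = DMSO median and -100 = no signal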
rRNA inh HTS RFP: also measured in rRNA inh HTS; calls as there; RFP signal change, %; measured here: RFP humanized mutant strains;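 first replicate; 0 = DMSO median and -100 = no signal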
* marks the source's active call; other numbers are inactive results; i = inactive; u = inconclusive; x = not tested or not shown. A portion of the library; count on the stated rates, not on these rows.

SMILES	HNF4A DNA FP	UCH37 DUB inh	rRNA inh HTS	rRNA inh HTS OD600	rRNA inh HTS RFP	B2AR ag	FGF22 binding	ALR H2O2 inh	Ecoli growth
CC(C)(C)n1nnnc1C(c1cccs1)N1CCN(Cc2ccccc2)CC1 (stereo unspecified)	3.5	1.2	5.0	4.2	-3.4	-5.4	i	1.1	0.679
c1coc(C2OCC3(CO2)COC(c2ccco2)OC3)c1 (stereo unspecified)	1.5	0.1	4.7	6.1	-0.9	3.7	i	-5.3	0.71
O=C1CCc2cc(NS(=O)(=O)c3ccc([N+](=O)[O-])cc3)cc3c2N1CCC3	-0.9	6.3	-4.9	-1.7	1.9	-2.0	i	x	0.673
CC(C)CNC(=O)NC(=O)COC(=O)C1CSC2(c3ccc(F)cc3)CCC(=O)N12 (stereo unspecified)	-4.7	3.8	-2.1	2.4	5.3	-7.9	i	-6.1	0.714
COc1ccc2[nH]c(=O)c(CN(CCO)S(=O)(=O)c3ccc(C)cc3)cc2c1	6.2	-88.3	-23.6*	8.2*	-0.9*	-4.5	i	-5.4	0.657
O=C(CN1CCCCC1)Nc1ccc(NC(=O)c2ccc(Cl)cc2)cc1Cl	-1.8	-53.1	x	x	x	6.3	x	-4.4	0.673
COc1ccc([N+](=O)[O-])cc1NC(=O)C(C)Sc1ccccc1 (stereo unspecified)	0.7	5.1	x	x	x	3.2	x	1.5	0.694
S=C(Nc1ccc(Cl)cc1)NC1CC2CCCC(C1)N2C1CC1 (stereo unspecified)	2.8	2.2	-4.3	-18.0	3.9	-6.6	i	-2.2	0.679
CC(C)(C)OC(=O)CC[C@@H](C(=O)N1CCN(C(=O)OC(C)(C)C)CC1)n1cc(C(Cc2ccc(O)cc2)NC(=O)OC(C)(C)C)nn1 (stereo partly specified)	-1.7	6.0	1.9	1.4	-0.6	5.7	i	-27.4	x
COc1ccc(S(=O)(=O)N(C)Cc2ccc3c(c2)OCCO3)cc1	-1.8	-2.1	-4.9	-16.8	5.2	-1.7	i	-2.1	0.691
CN=Cc1sc2ccccc2c1O	-3.7	3.3	-15.9	-2.5	42.2	-6.1	i	46.9	0.663
COc1ccccc1NC(=O)CSc1nc2[nH]ncc2c(=O)[nH]1	5.4	3.0	2.9	4.3	-0.8	0.3	i	-5.1	0.63
COC(=O)c1cc(C(C)=O)n2ccccc12	2.8	8.4	x	x	x	-3.2	x	-8.4	0.753
O=C(c1cc(-c2ccccc2Cl)nc2ccc(Br)cc12)N1CCN(c2ccccn2)CC1	2.2	-0.6	7.1	18.2	2.9	-0.1	i	x	0.751
O=C1NCCN(CC2CCN(CCC3CCCC3)CC2)C1=O	-1.5	x	22.9	22.4	1.0	0.0	i	x	x
CCCN(CCC)CC(=O)NCC1(c2ccccc2)CCOCC1	4.9	0.1	x	x	x	-0.6	x	-9.5	0.676
CC(O)(CS(=O)(=O)Cc1ccccc1Cl)C(=O)Nc1cccc(C(F)(F)F)c1 (stereo unspecified)	-2.7	2.4	x	x	x	8.8	x	-5.0	0.692
CCn1c(SCC(=O)NC2=NCCS2)nnc1C(C)NC(=O)c1ccccc1F (stereo unspecified)	4.7	2.4	5.8	3.5	3.0	-12.5	i	2.3	0.636
O=C(CSCc1ccccc1Br)Nc1ccccc1	-2.2	4.1	-36.5	-62.7	-7.8	1.2	i	21.3	0.68
CN=c1scc(-c2ccccc2F)n1/N=C/c1ccc[nH]1	15.4	x	-21.6*	9.0*	-4.6*	2.2	i	u	x
COc1cc2c(cc1OC)CN(C(=O)c1sccc1C)CC2	1.6	3.9	-3.9	2.2	5.6	-5.0	i	x	0.682
Cc1ccc(S(=O)(=O)N2CCN(Cc3ccccn3)CC2)cc1	-2.6	0.6	-2.5	-7.1	-3.1	0.2	i	3.5	0.583
COCCN=C1N[C@@H](c2cccc(C(F)(F)F)c2)C(C(=O)OC)=C(C)N1Cc1ccccc1	2.1	-1.9	-35.4	-57.0	-17.2	36.7	i	-1.1	x
COc1ccc(S(=O)(=O)N2CCN(C(=S)Nc3ccc(S(N)(=O)=O)cc3)CC2)cc1	-0.8	-0.3	-1.6	8.6	0.9	-3.3	i	2.3	0.724

A few values from the results shown.
Ecoli growth, `COC(=O)c1cc(C(C)=O)n2ccccc12` → 0.753
rRNA inh HTS RFP, `O=C(CSCc1ccccc1Br)Nc1ccccc1` → -7.8

Next section
SMILES	HNF4A DNA FP	UCH37 DUB inh	rRNA inh HTS	rRNA inh HTS OD600	rRNA inh HTS RFP	B2AR ag	FGF22 binding	ALR H2O2 inh	Ecoli growth
COc1cccc(CNC(=O)C(=O)NCCc2ccc(OC)c(OC)c2)c1	1.9	7.4	x	x	x	-3.9	x	-1.2	0.704
O=C(NCCN1CCCC1)c1ccc(Cn2c(=S)[nH]c3cc4c(cc3c2=O)OCO4)cc1	10.0	1.0	x	x	x	-0.4	x	18.3	0.673
CCc1ccc2c(c1)c1nnc(NN)nc1n2C	5.5	x	-12.3	-1.9	7.5	-6.4	i	-13.1	x
CCOc1ccccc1NC(=O)CSc1nc2ccccc2c(=O)n1CC1CCCO1 (stereo unspecified)	2.3	5.6	-7.7	-28.2	0.7	-6.9	i	16.1	0.635
CCOc1ccc(NS(=O)(=O)c2cc(C(=O)N(CC)CC(=O)NCc3cccs3)ccc2C)cc1	-0.8	1.1	-8.1	-17.0	6.4	-3.3	i	-3.5	0.68
COCCn1c(SCC(=O)c2ccccc2)nc2c(c1=O)SC(C)C2 (stereo unspecified)	-1.7	6.1	x	x	x	-15.6	x	98.8*	0.651
Cc1ccc2c(c1)C(=O)C(=O)N2CCOc1ccccc1	-3.5	6.6	-23.0*	-10.3*	0.7*	-1.6	i	-4.0	0.719
CC1CCN(S(=O)(=O)c2ccc3c(c2)C(=NO)c2cc(S(=O)(=O)N4CCC(C)CC4)ccc2-3)CC1	1.1	-13.2	x	x	x	8.8	x	4.8	0.791
C=CCN(C(=O)c1ccc(Cl)cc1)c1ccccc1C(=O)NCC(=O)O	4.5	0.7	9.1	-2.7	-0.6	-13.4	i	-22.5	0.712
COc1ccc(-c2nc(=S)n3ccsc3n2)cc1OC	3.4	17.2	12.3	9.4	1.4	-7.3	x	x	0.693
CC(=O)Nc1ccc(S(=O)(=O)NC2(C(F)(F)F)N=C(c3ccccc3)NC2=O)cc1 (stereo unspecified)	2.0	0.1	16.4	13.2	0.6	1.9	i	2.0	0.64
O=C(Cn1ncc(Cl)c(Cl)c1=O)NC1CCCCC1	-2.7	0.8	12.6	10.6	-2.6	14.7	i	x	0.641
COc1ccc(-c2cc(=O)c3c(O)cc(O)cc3o2)cc1	-4.6	2.2	x	x	x	8.7	i	0.8	0.729
Cc1nc(N2CCN(Cc3ccccc3)CC2)nc2c1CCC2	0.2	0.8	-6.0	-8.9	0.7	1.5	i	1.1	0.709
CS(=O)(=O)N(CC(=O)NCc1ccccc1)C1CCCCC1	-2.8	6.8	x	x	x	11.4	x	-2.1	0.755
COc1ccc2[nH]c3c(c2c1)CCN1C(=O)C(CC(=O)NCc2ccco2)C[C@H](C(=O)N2CCOCC2)[C@@]31C (stereo partly specified)	-1.8	-1.7	1.3	13.4	-0.1	-2.8	i	x	0.667
COCCN=C1N[C@@H](c2ccc(Br)cc2)C(C(=O)OC)=C(C)N1Cc1ccccc1	-2.7	-0.2	-5.6	-15.4	9.8	20.1	i	-10.2	x
Cc1cc(=O)[nH]c2c(C)cc(S(=O)(=O)Nc3ccc(O)cc3)cc12	0.5	2.0	7.1	2.4	1.1	5.3	i	99.1*	0.668
CC(C)CNC(=O)C1C(=O)Nc2ccccc2C(=O)N1C(C)(C)C (stereo unspecified)	1.7	x	28.3	14.6	-2.5	x	i	x	x
COc1ccc(CC(=O)Nc2nc(-c3cccc([N+](=O)[O-])c3)cs2)cc1	1.9	1.8	x	x	x	2.5	x	-2.6	0.631
COc1ccc(-c2cc3cc(-c4cc(OC)c(OC)c(OC)c4)ccc3o2)cc1	-0.4	1.1	3.8	6.0	7.8	0.1	i	-3.0	0.679
CCNc1cc(Cl)nc(SC)n1	-1.1	x	x	x	x	6.3	x	-27.1	0.676
OCCN1CCN(CC(O)COCCOc2ccc(Br)cc2)CC1 (stereo unspecified)	-0.9	3.6	12.2	6.8	-5.3	-4.1	i	x	0.662
C=CCn1cccc(C(=O)Nc2ccc(C)cc2)c1=O	0.1	7.9	-5.7	-8.6	-1.7	0.3	i	0.5	0.665
COc1cc(C)cc(CN2CCC(Cc3ccccc3)CC2)c1O	1.8	1.2	-14.6	-35.5	-5.4	1.0	i	21.4	0.661
OCC1(Cc2ccccc2)CCN(Cc2ccccn2)CC1	-2.1	4.6	8.7	3.3	-2.6	-0.8	i	x	0.668
C/C(=N\N=C1/NC(=O)C(C)S1)c1ccco1 (stereo unspecified)	1.5	x	4.3	-3.6	-2.4	-1.4	i	x	x
CCOc1ccc(-n2c(=O)c3ccccc3c3ccccc3c2=O)cc1	-6.5	0.3	-7.2	-4.0	1.4	5.9	i	7.1	0.651
COc1cc([N+](=O)[O-])ccc1NC(=O)NNC(=O)CCc1ccccc1	1.3	5.1	1.7	4.6	2.1	-2.8	i	-7.7	0.714
O=c1oc2ccccc2c(CNc2ccccc2)c1[N+](=O)[O-]	-1.2	8.7	-5.5	-4.9	2.4	3.5	i	-6.0	0.642
COc1ccc(Br)cc1/C=N/NC(=O)CNC(=O)C1COc2ccccc2O1 (stereo unspecified)	4.0	x	1.9	13.1	2.9	1.0	i	-1.8	x
Cc1cc(C)n2nc(Cc3ccccc3)nc2n1	1.6	1.4	x	x	x	-14.6	x	0.3	0.739
CCCCNC(=O)CCC(=O)Nc1ccc2nc(N3CCOCC3)cc(C)c2c1	1.6	-347.3	x	x	x	-6.5	x	-13.6	0.664
CN(C)c1nc(-c2cn(CCC#N)c3ccccc23)cs1	-14.6	-1.8	-1.1	-16.4	9.1	0.3	i	10.6	0.633
CCOC(=O)N1CCN(C2CC(=O)N(c3ccc(F)cc3)C2=O)CC1 (stereo unspecified)	-3.1	2.0	x	x	x	4.7	x	-2.9	0.663
O=C(N/N=C/c1c(F)cccc1Cl)C1CC1	0.1	x	7.0	10.8	-1.6	-8.8	i	-4.1	x
COc1ccc2cc3cc(C(=O)NC4CC4)sc3nc2c1	1.8	i	-5.2	4.6	-0.1	-5.4	i	-1.1	0.689
COc1ccc(NC(=O)CN2CCN(C(=O)N3CCOCC3)CC2)cc1	0.2	1.2	5.3	8.7	0.1	10.3	i	-49.4	0.677
Cc1ccc(S(=O)(=O)Nc2cc(C)on2)cc1	1.1	-0.1	2.9	11.7	-1.8	1.5	i	-5.2	0.692
N#CC1(NC(=O)CN2C(=O)NC(Cc3c[nH]c4ccccc34)C2=O)CCCCC1 (stereo unspecified)	2.9	2.6	x	x	x	-5.4	i	6.1	0.688

Assay outcomes as filed in PubChem BioAssay.
